Source: PubChem
Bst PK mod: alters activity of Bacillus stearothermophilus pyruvate kinase; partly purified Bacillus stearothermophilus pyruvate kinase, luminescence ATP production; ribose 5-phosphate activator present at AC10; Potency, µM; hit rate 1.2% among 51,000; AID 361; in the data active means potency below about 11 µM; inconclusive means mostly about 12 µM to 25 µM; inactive means weaker than that;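 the screen sought inhibitors and activators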;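 also: potency is read from the fitted curve at half-maximal effect; scaled between full activation by ribose 5 phosphate and full inhibition by luteolin; about four in five hits inhibit and the cells do not say which; series up to 57 µM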
TsaE inh: displaces an ADP probe from E. coli YjeE (TsaE) | purified YjeE, fluorescence polarisation of a bound ADP probe | Potency, µM | hit rate 0.05% among 71,000; active = well fitted falling curve; inconclusive = weaker or top-dose-only fall, or a rising curve; inactive = flat or poorly fitted curve;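 also: top concentration of the series not given in the record; excess ADP was the control for the full effect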
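Fluorescence polarization of a BODIPY Texas Red–ADP probe (2 uM) bound to purified YjeE (10 uM) was read after 15 min room-temperature incubation with compounds. Loss of polarization marks inhibitors; ADP serves as titrated control.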
Numbers without * were called inactive; i = inactive; ? = inconclusive; . = no result given. Not all compounds are listed; count on the stated rates, not on these rows.

SMILES | Bst PK mod | TsaE inh
CCOc1ccc(NC(=O)CSc2nnc(-c3ccccc3)n2N)cc1 | >57 | i
Cc1cc(C)n2nc(CC(=O)NC3CCCCCCC3)nc2n1 | >57 | i
COc1cccc(OC)c1C(=O)Nc1cc(Cl)ccc1N1CCOCC1 | >57 | i
Cc1c(CNC(=O)c2nn3c(c2Cl)NC(c2ccccc2)CC3C(F)(F)F)cnn1C (centres undefined) | >57 | i
O=c1cc(-c2ccc(O)cc2O)oc2ccccc12 | . | i
CCCCn1c(CN2CCN(c3cccc(Cl)c3)CC2)nc2c1c(=O)n(C)c(=O)n2C | >57 | i
O=c1cc(N2CCOCC2)[nH]c(=O)n1-c1ccc(Cl)cc1 | . | i
CCNC(=O)N1CCNC(=O)C1CC(=O)OC (centres undefined) | >57 | i
CCOC(OCC)P(=O)(O)CCCNCc1ccc(Cl)c(Cl)c1 | . | i
COc1ccc(OC)c(NC(=O)[C@H]2CC=CC[C@H]2C(=O)O)c1 | >57 | i
c1ccc2c(c1)CCCN2Cc1nnnn1C1CCCC1 | >57 | i
N#CC(C#N)C(c1ccsc1)c1c(-c2ccccc2)[nH][nH]c1=O (centres undefined) | >11.4 | .
CCn1c(SCC(=O)NC(C)(C)C)nc(O)cc1=O | >57 | i
O=C(CN1C(=O)c2ccccc2S1(=O)=O)N1CCN(Cc2ccc3c(c2)OCO3)CC1 | >57 | i
CCCCC(CC)CNC(=O)CN(C)S(=O)(=O)c1cccc2nsnc12 (centres undefined) | >57 | i
COc1ccc(N2CCN(C(CNC(=O)c3cccc(Cl)c3)c3cccnc3)CC2)cc1 (centres undefined) | >57 | i
O=C(CCS(=O)(=O)c1cc(Br)cc2c1N(C(=O)C1CC1)CC2)NCC1CCCO1 (centres undefined) | >57 | i
CCCOC(=O)C1=C(C)NC2=C(C(=O)CCC2)C1c1cccs1 (centres undefined) | >57 | i
CCNc1nc(N)nc(Oc2ccc(OCC)nn2)n1 | >57 | i
Cc1noc(C)c1C(=O)N1CCC[C@@]2(CCN(Cc3ccc(C#N)cc3)C2)C1 | . | i
O=C(c1ccc(CNS(=O)(=O)c2cccc(C(F)(F)F)c2)cc1)N1CCOCC1 | >57 | i
OCCN(Cc1ccccc1)Cc1ccccc1Cl | >57 | i
CS(=O)(=O)N1CCC2(CC1)CN(c1ncccn1)C2 | . | i
O=C(Nc1ccccc1)C1CC(=O)N(C2CCCCC2)C1 (centres undefined) | . | i
O=C(Nc1ccc(N2CCN(C(=O)c3ccccc3)CC2)cc1)c1cc2ccccc2o1 | >57 | i

Additional records.
SMILES | Bst PK mod | TsaE inh
O=C(CSc1nc(-c2ccc(F)cc2)cs1)N1CCOCC1 | . | i
O=C(NCc1ccc2c(c1)OCO2)c1nn(-c2ccccc2)c(=O)c2ccccc12 | >57 | i
Cc1ccc(-n2ncc3c(NCc4ccccc4)ncnc32)cc1 | >57 | i
Cc1ccc(-c2n[nH]c(=O)c3ccccc23)cc1S(=O)(=O)NCCN1CCOCC1 | >25.6 | .
COc1ccccc1NC(=O)Nc1ccc2c(c1)OCCO2 | i | i
CCN(Cc1ccccc1)S(=O)(=O)c1ccc(S(=O)(=O)N2CCN(CCC#N)CC2)cc1 | . | i
O=C(OC1CSc2nc3ccccc3n2C1)c1ccco1 (centres undefined) | >57 | i
CCOC(=O)Nc1sc(C)nc1-c1ccccc1 | >57 | i
CC(=O)Nc1cc(NC(C)=O)c(CC(C)C)s1 | . | i
C=C(C)C(=O)OCC(C)O (centres undefined) | . | i
c1ccc(-n2ncc3c(NCC4CCCO4)ncnc32)cc1 (centres undefined) | i | .
O=C(O)CCn1cnc2c(=S)nc[nH]c21 | . | i
O=C(COC(=O)C1=COCCO1)Nc1ccc2c(c1)OCO2 | >57 | i
CCCCOC(=O)Nc1sc2c(c1C(=O)OC)CCC2 | . | i
CCOC(=O)N1CCC(NC(=O)c2ccc3snnc3c2)CC1 | . | i
CCCOc1ccccc1C1NC(=O)NC(C)=C1C(=O)OCCOC (centres undefined) | >57 | i
COC(=O)N[C@H](c1ccccc1)[C@@]1(C)C[C@@H]1[C@@H](C)C(=O)Nc1ccc2ccccc2c1 | . | i
Cc1oc2c(CN3CCCC3)c(O)ccc2c(=O)c1-c1ccc(Br)cc1 | >57 | i
Cc1csc2ncc(C(=O)N3CCc4ccccc43)c(=O)n12 | . | i
CCOC(=O)c1cc2c(=O)n3ccccc3nc2n(Cc2ccccc2)c1=N | >57 | i
Cn1c(=O)cc(SCC(=O)NCC2CCCO2)c2ccccc21 (centres undefined) | >57 | i
CC1CCCC(C)N1C(=O)CSc1nnc(NC(=O)Cc2cccs2)s1 (centres undefined) | >57 | i
O=C(CCN1C(=O)c2ccccc2C1=O)Nn1cnnc1 | >57 | i
O=C(OCC(COC(=O)c1ccccc1)(COC(=O)c1ccccc1)COC(=O)c1ccccc1)c1ccccc1 | . | i
COc1cc(OC)c(C(=O)NC2CC(C)(C)NC(C)(C)C2)cc1OC | >57 | i

Arranged by molar mass (low to high): 3 of the compounds above
SMILES | Bst PK mod | TsaE inh
c1ccc(-n2ncc3c(NCC4CCCO4)ncnc32)cc1 (centres undefined) | i | .
Cn1c(=O)cc(SCC(=O)NCC2CCCO2)c2ccccc21 (centres undefined) | >57 | i
Cc1oc2c(CN3CCCC3)c(O)ccc2c(=O)c1-c1ccc(Br)cc1 | >57 | i

(continued)
SMILES | Bst PK mod | TsaE inh
O=C(O)c1cc2n(n1)C(C(F)(F)F)CC(c1ccccc1)N2 (centres undefined) | >25.6 | .
O=C(O)CCc1cc(I)c(Oc2ccc(O)c(I)c2)c(I)c1 | >25.6 | .
CCn1c2ccccc2c2cc(NC(=O)Cc3ccc(S(=O)(=O)N4CCOCC4)s3)ccc21 | >57 | i
CC1CCCCC1NC(=O)c1nnc(Cc2ccc(Cl)cc2)o1 (centres undefined) | . | i
CC(=O)O[C@@H]1C[C@]2(C)[C@H](C[C@@H](O)[C@H]3[C@@]4(C)CC[C@@H](O)[C@@H](C)[C@@H]4CC[C@@]32C)/C1=C(\CCC=C(C)C)C(=O)O | . | i
O=C(O)CCCC(=O)NCCc1ccncc1 | >57 | i
COc1ccc(-n2cnc3c(sc4nccc(N(C)C)c43)c2=O)cc1 | . | i
O=C(OCc1cc2ccccc2[nH]c1=O)c1ccccn1 | >57 | i
CC(=O)N1CCN(c2ccc(NCc3ccc(F)cc3)cc2)CC1 | . | i
CC(C(=O)NC1CCCc2ccccc21)N1CCN(Cc2ccc3c(c2)OCO3)CC1 (centres undefined) | >57 | i
CC1(NC(=O)N2CCCCC2)CCS(=O)(=O)C1 (centres undefined) | . | i
COc1ccc(OC)c2c(C)cc(N3CCCN(C)CC3)nc12 | . | i
CC1Cc2ccccc2N1C(=O)CSCC(=O)O (centres undefined) | >57 | i
COc1ccc(-n2c(Cc3cccn3C)nnc2SCC(=O)N2CCOCC2)cc1 | . | i
Cc1cc(C)n2nc(SCc3nc4ccccc4[nH]3)nc2n1 | . | i
CC1Oc2ccccc2N(CC(=O)c2ccccc2)C1=O (centres undefined) | >57 | i
CCOc1ccccc1-n1c(SCC(=O)NCc2ccco2)nnc1-c1ccncc1 | >57 | i
COc1ccc(S(=O)(=O)N(C)CC(=O)N2CCOCC2)cc1Cl | >57 | i
Cc1cc(C(=O)O)c(CCCN)s1 | >57 | i
COc1ccc(N2CCN(C(=O)c3ccc(C)c(Cl)c3)CC2)cc1 | 6.38* | i
COc1ccc(CNc2ncncc2-c2c(C)noc2C)c(OC)c1 | . | i
Cc1occc1-c1nnc(SCC(=O)NC(C)(C)C)n1C(C)c1ccccc1 (centres undefined) | >57 | i
Cc1cc(O)c(C(C)C)cc1NC(=O)Cn1nc(C)c2ccccc2c1=O | ? | i
Cn1c2c(c(=O)n(C)c1=O)C(c1cc3c(cc1Br)OCO3)CC(=O)N2 (centres undefined) | . | i
O=S(=O)(c1ccccc1)N1CCC2(CCCN(C(c3ccccc3)c3ccccc3)C2)CC1 | . | i

(list continues)
SMILES | Bst PK mod | TsaE inh
O=C(COc1ccc(Cl)cc1)NCc1nnc(SCC(=O)Nc2ccc3c(c2)OCCO3)o1 | >57 | i
Cc1cccc(C)c1Nc1nnc(SCC(=O)NCc2ccco2)s1 | . | i
Cc1cccc2cc(CN(CCN3CCOCC3)C(=O)NCc3ccccc3)c(=O)[nH]c12 | >57 | i
O=C(O)c1ccc2c(c1)C(=O)N(CCC1=CCCCC1)C2=O | >57 | i
O=Cc1ccc(Cl)c(Cl)c1 | . | i
COc1ccc(S(=O)(=O)CCC(=O)NCCc2ccc(S(N)(=O)=O)cc2)cc1 | >57 | i
CCN(CC)CCNC(=O)c1ccc(N)cc1 | >25.6 | i
CNC(=O)CSc1nnc(-c2cccc(S(=O)(=O)N3CCOCC3)c2)n1-c1ccc(F)cc1 | >57 | i
Cc1cc(NC(=O)c2cnn3c(C(F)(F)F)cc(-c4ccccc4)nc23)no1 | >57 | i
O=C(c1ccc2nccnc2c1)N1CCN(Cc2ccc3c(c2)OCO3)CC1 | >11.4 | i
c1csc(CNc2ncnc3nc[nH]c23)c1 | . | i
COC(=O)c1cc2oc3ccccc3c2n1CC(=O)Nc1ccccc1OC | >57 | i
O=C(Nc1nc(=O)c2ccccc2s1)c1ccccc1 | i | .
CC(=O)N1CN(C2CCS(=O)(=O)C2)Cc2c1sc1c2CCCC1 (centres undefined) | >57 | i
O=C(c1ccc(Br)o1)N1CCN(c2ccc(F)cc2)CC1 | >57 | i
COc1cc(OC)c(OC)cc1CN(C)CCc1ccccn1 | >57 | i
O=C(CSc1nnnn1C1CCCCC1)Nc1cccc(NC(=O)c2ccco2)c1 | >57 | i
Cc1noc(C)c1COC(=O)CN(C)S(=O)(=O)c1ccc(Cl)cc1 | >57 | i
COc1ccc(N2CCN(c3nc4c(c(=O)n(C)c(=O)n4C)n3CCCc3ccccc3)CC2)cc1 | >57 | i
Cc1noc(C)c1-c1nc(NCCN2CCOCC2)c2ccccc2n1 | . | i
COc1cccc(C(=O)COC(=O)C(C)N2C(=O)c3ccccc3C2=O)c1 (centres undefined) | . | i
COc1cccc(-c2cc3nc4c(c(N5CCC6(CC5)OCCO6)n3n2)CCCC4)c1 | . | i
CC(=O)Nc1ccc(S(=O)(=O)c2ccc(N)cc2)cc1 | >57 | i
CCC(C(=O)OC)n1cnc2c(cnn2-c2ccc(Cl)cc2)c1=O (centres undefined) | . | i
CNS(=O)(=O)c1ccc(Oc2ccc(S(=O)(=O)NC)cc2)cc1 | . | i

Part of the list above, as labelled records:
COc1cccc(C(=O)COC(=O)C(C)N2C(=O)c3ccccc3C2=O)c1 (centres undefined)
- Bst PK mod = .
- TsaE inh = i

CCN(CC)CCNC(=O)c1ccc(N)cc1
- Bst PK mod = >25.6
- TsaE inh = i

c1csc(CNc2ncnc3nc[nH]c23)c1
- Bst PK mod = .
- TsaE inh = i

(list continues)
SMILES | Bst PK mod | TsaE inh
Cn1c(SCc2c(Cl)cccc2Cl)nnc1-c1cccs1 | ? | i
O=C(O)CCCCCCC1C(=O)NC(=O)N1CCC(O)C1CCCCC1 (centres undefined) | >11.4 | .
CC(C)(C)NC(=O)Cn1nnc(-c2cccs2)n1 | . | i
CCCc1nc(SCC(=O)N2CCCc3ccccc32)c2c(=O)n(C)c(=O)n(C)c2n1 | . | i
CC1(C)Cc2c(sc3nc(SCC#N)n(C4CCCCC4)c(=O)c23)CO1 | >25.6 | .
COC(=O)[C@@]1(Cc2ccc(F)cc2)[C@H]2c3cc(C(=O)N4CCCC4)n(Cc4cccc5ccccc45)c3C[C@H]2CN1C(=O)c1ccccc1 | . | i
O=C1CC(N2CCN(Cc3ccccc3)CC2)C(=O)N1CCc1ccccc1 (centres undefined) | . | i
O=C(Nc1ccccc1)N1CCC2(CC1)CCN(C(=O)c1ccco1)CC2 | . | i
COc1ccc2[nH]c(C)c(CCN3C(=O)C4CC=CCC4C3=O)c2c1 (centres undefined) | . | i
Nc1nc(N)c2[nH]cnc2n1 (tested in a mixture with another compound) | . | i
CCOc1ccccc1C(=O)N(C)Cc1cc2cc(OC)ccc2[nH]c1=O | >57 | i
COc1ccccc1OCC(=O)c1[nH]c(C)c(C(C)=O)c1C | >57 | i
CCc1ccc(OCC(=O)NCCN(C)C)c(Br)c1 | >57 | i
O=C(Cc1cn2ccsc2n1)NCCc1ccc(F)cc1 | >57 | i
O=C(Nc1ccc2nc3n(c(=O)c2c1)CCCCC3)c1ccccn1 | . | i
O=c1c(-c2cc(F)cc(F)c2)nc2cnc(N3CCNCC3)nc2n1CCc1ccccc1 | . | i
Cc1c(C(=O)N2CCOCC2)[nH]c2c1C(=O)CC(c1ccc(Cl)cc1)C2 (centres undefined) | >57 | i
Cn1ncc(N=Cc2c(O)ccc3ccccc23)c1C(=O)N1CCOCC1 | >25.6 | .
Cc1ccc(C(=O)Nc2nc3c(s2)CCCC3)o1 | >57 | i
C=CCOc1ccc(CN(C)CC(=O)N(CC(C)C)c2c(N)n(CC(C)C)c(=O)[nH]c2=O)cc1 | >57 | i
Cc1ccc(C)c2[nH]c(=O)c(CN(Cc3nnnn3C3CCCCC3)CC3CCCO3)cc12 (centres undefined) | >57 | i
COc1cccc(-c2cc(C(F)(F)F)nc(NCc3ccco3)n2)c1 | >57 | i
COc1ccccc1NC=C1C(=O)OC2(CCCCC2)OC1=O | >57 | i

As entered above.
In Bst PK mod, C=CCOc1ccc(CN(C)CC(=O)N(CC(C)C)c2c(N)n(CC(C)C)c(=O)[nH]c2=O)cc1 is listed with >57
In Bst PK mod, COc1ccc(N2CCN(C(=O)c3ccc(C)c(Cl)c3)CC2)cc1 is listed with 6.38*
